Bioassay records deposited in PubChem BioAssay by several laboratories.
CSC inhib: blocks cancer stem cells; 1.1% of 300,000 active; inhibition, % at 7.5 µM; cancer stem cell-like cells viability, luminescence;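 active = mean at 75% or more and at least half the replicates too; inconclusive = mean and replicates disagree; tested in HMLE shEcad cells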;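 note: 0% = median of negative and 100% = median of positive control wells; the first replicate is given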
MT1-MMP act inh: inhibitors of human MT1-MMP activation | P50281 | HT1080 RFP-PRO-GFP cells, GFP/RFP ratio fluorescence, overnight; percent of plate control window, DMSO zero | GFP/RFP ratio change, % at 20 µM | 0.061% of 360,000 active | AID 651647;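 active = GFP/RFP ratio change of at least 30% with cell ATP level not reduced by more than half and red fluorescence within 50% of control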; note: strong numbers were not always called active
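Material – HT1080 RFP-PRO-GFP cells · Control set – DMSO wells and RFP-L50D-GFP cells · Incubation – overnight cell settling, then overnight compound exposure, 37 °C, 5% CO2 · Compound dosing – single-point 20 µM compound, 1% DMSO · Read-out – GFP/RFP fluorescence ratio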
Rce1 inhib: inhibitors of yeast Ras-converting enzyme; Q03530; yeast membranes, quenched prenylated peptide cleavage fluorescence; calls only; 0.27% of 290,000 active;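 active = fall in fluorescence gain of 50% or more versus controls, with final raw signal at or below 3038400; inconclusive = same 50% fall but final raw signal above 3038400; inactive = fall in fluorescence gain under 50%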;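 note: plate controls were neutral control wells for no effect and wells lacking membranes for full effect; tested at 10 µM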
Env fusion inh: inhibitors of HIV Env-mediated cell fusion | HeLa-JRFL Env/CEM21 cell fusion, luciferase | inhibition, % at 12.3 µM | 1.1% of 360,000 active | AID 651610;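 active = mean replicate inhibition score of at least 50 and every replicate individually at or above 50; inconclusive = only one of the two criteria met; inactive = mean below 50 and not all replicates reaching 50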;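 note: 0% = plate neutral controls and 100% = maraviroc near 300 nM; one replicate is shown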
PABP FP inh: PABP-poly(A) binding inhibition; P11940; PABP-poly(A) RNA binding, fluorescence polarization; inhibition, % at 35 µM; 1% of 290,000 active; AID 2014;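 active = 50% or more with normal probe brightness, or confirmed in later tests; inconclusive = above 50% with abnormal brightness, or retests that disagree; inactive = below 50% or failed in later tests; about a fifth of its hits are not listed in these tables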;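 note: calls also rest on retests at 20 µM and on dose response follow-up; controls were probe without protein and protein plus probe with vehicle; some compounds called inactive have numbers as strong as hits; many hits fall short of the cut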
Target sequence (P11940 whole entry, looked up): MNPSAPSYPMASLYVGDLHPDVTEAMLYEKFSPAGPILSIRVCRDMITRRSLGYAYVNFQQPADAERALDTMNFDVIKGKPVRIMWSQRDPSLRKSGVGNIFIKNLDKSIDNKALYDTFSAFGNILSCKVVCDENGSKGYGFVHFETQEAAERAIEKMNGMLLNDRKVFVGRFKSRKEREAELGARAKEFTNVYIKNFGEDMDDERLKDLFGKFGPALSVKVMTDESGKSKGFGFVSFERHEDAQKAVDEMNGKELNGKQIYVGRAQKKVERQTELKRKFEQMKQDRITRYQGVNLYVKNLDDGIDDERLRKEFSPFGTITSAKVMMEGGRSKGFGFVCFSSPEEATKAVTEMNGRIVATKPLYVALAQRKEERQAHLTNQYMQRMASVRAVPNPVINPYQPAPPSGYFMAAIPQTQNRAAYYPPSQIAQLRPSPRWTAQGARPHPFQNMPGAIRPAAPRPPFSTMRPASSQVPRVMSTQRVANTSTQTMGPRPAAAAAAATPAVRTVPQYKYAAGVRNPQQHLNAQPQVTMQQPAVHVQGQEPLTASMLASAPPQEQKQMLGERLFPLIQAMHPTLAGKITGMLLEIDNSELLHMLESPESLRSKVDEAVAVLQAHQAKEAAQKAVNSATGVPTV
Yeast UUG start: yeast start codon fidelity modulation; S. cerevisiae UUG-firefly luciferase reporter, luminescence/redox ratio; activity score, % at 18.7 µM; 0.13% of 350,000 active;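 active = replicate mean at a twofold rise or more, about +100% in these data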;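 note: firefly luciferase made from a UUG start codon reports start codon fidelity; reporter light over untreated wells divided by growth signal over untreated wells; some hits fall short of that in this replicate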
eIF4H FP inh: inhibitors of RNA binding by human eIF4H; Q15056; eIF4H fluorescence polarization binding assay; inhibition, % at 35 µM; 0.94% of 290,000 active; AID 2012;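 active = 50% or more with normal probe brightness, or confirmed in later tests; inconclusive = above 50% with abnormal brightness, or retests that disagree; inactive = below 50% or failed in later tests; about a fifth of its hits are not listed in these tables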;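 note: calls also rest on retests at 20 µM and on dose response follow-up; 0% = protein and probe with vehicle and 100% = probe without protein; strong numbers were not always called active; many hits fall short of the cut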
MT1-MMP act inh RFP: further read-out of MT1-MMP act inh, marked with its call; RFP signal change, %; measured here: RFP expression control read;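 0 = vehicle wells; hits needed this value within 50% of zero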
Starred values were filed as active, the others as inactive; i = inactive; ? = inconclusive; . = not tested or not shown; & = joins results of further samples. An unsorted share of the library; overall some 2.9% were active at least once.

Structure	eIF4H FP inh	MT1-MMP act inh RFP	Yeast UUG start	Rce1 inhib	MT1-MMP act inh	PABP FP inh	CSC inhib	Env fusion inh
COc1ccc(/C=C/CN2CCN(CCc3ccccc3)C(CCO)C2)cc1 (stereo unspecified)	1	-3	-35	i	-2	-13	13	-4
Cc1cc(/C(N)=N/OC(=O)c2ccc(Cl)cc2)no1	-4	-3	-38	i	-3	-12	-2	-82
COc1cc(C(=O)N(C)CC(=O)Nc2cccc(F)c2)ccc1OCc1ccccc1	.	1	3	i	5	.	.	8
CCOC(=O)C(=O)Nc1nnc(Cc2ccc(OC)c(OC)c2)s1	-1	2	-10	i	4	7	-6	.
Cc1c(NC(=O)COC(=O)c2ccc(S(=O)(=O)N3CCOCC3)cc2)c(=O)n(-c2ccccc2)n1C	0	2	-10	i	0	-5	-15	5
C=CCOc1ccc(/C=C2/C(=O)ON=C2C)cc1OCC	5	-1	-11	i	-3	18	-10	-17
O=C(CC1CCC1)Nc1cccc2c([N+](=O)[O-])cccc12	.	-5	-9	i	8	.	4	7
O=C(CCCOc1ccc(Cl)cc1)NCCc1ccccc1	-2	3	-7	i	1	8	-4	8
O=C(Cc1ccccc1)Nc1ccc(NC(=O)c2cccs2)c(Cl)c1	-5	-9	-16	i	-15	5	15	-34
N#Cc1ccc(-c2ccc(OCC(=O)NN=Cc3ccncc3)cc2)cc1	.	-15	.	.	0	.	-7	-2
Cc1nnc(NC(=O)CSc2nccn2-c2ccc(F)cc2)s1	3	0	.	i	0	-17	15	-12
CCOC(=O)c1sc2cccc(Cl)c2c1N	-2	3	-12	i	1	-4	0	i
O=C(c1cc(S(=O)(=O)N2CCCCC2)ccc1Cl)N1CCOCC1	-4	2	-14	i	0	18	-8	-1
Cc1nc2ccccc2c2oc(C(=O)N3CCCC(C)C3)cc12 (stereo unspecified)	-9	0	-1	i	-2	4	-15	1
CCc1ccc(C(=O)Nc2cc(C)on2)o1	-5	2	-23	i	-4	3	-9	-14
C/C(=N\NC(=O)c1cccnc1)c1cccc([N+](=O)[O-])c1	9	1	.	i	3	-7	-1	13
COc1cc(Cl)c(S(=O)(=O)NCCCn2ccnc2)cc1Cl	4	-6	-11	i	7	10	-4	9
Cc1cc(-c2nnc(-c3cccc(C(F)(F)F)c3)o2)no1	-1	-2	.	i	-2	-8	-5	15
COc1ccc(NC(=O)Oc2ccccc2)cc1Cl	3	4	-5	i	7	-3	-17	-37
O=C(Nc1cccc(Cl)c1)c1cc([N+](=O)[O-])ccc1N1CCN(CCO)CC1	-3	-6	-13	i	-4	8	-17	36
CCOc1ccc(N2CC(O)Cn3c2nc2c3c(=O)n(CCCc3ccccc3)c(=O)n2C)cc1 (stereo unspecified)	4	-10	-13	i	1	-3	27	.
CC(=O)Nc1ccc(NC(=O)CSc2ncnn2-c2ccccc2)cc1	-9	-3	-12	i	-15	3	2	.
Cc1cc(-c2ccccc2)c(C#N)c(SCC(N)=O)n1	13	4	-7	i	1	7	-10	.
CCN(C[C@H]1N[C@@](Cc2ccccc2)(C(=O)OC)[C@H]2C(=O)N(C)C(=O)[C@@H]12)C(C)=O	.	3	-1	.	-4	.	.	7
O=S(=O)(Nc1ccc2c(c1)OCCO2)c1cccc2cccnc12	-2	-4	-15	i	-2	-6	.	7
CCC(NC(=O)CC[C@H]1O[C@@H](n2cc(C)c(=O)[nH]c2=O)C[C@@H]1O)c1ccccc1 (stereo partly specified)	.	6	-13	.	7	.	.	-3
Cc1nc2c(C(=O)O)cnn2c(C)c1Cc1ccccc1F	1	0	-6	i	2	-2	-7	-42
COc1cccc(Nc2nc(C(N)CC(C)C)cs2)n1 (stereo unspecified)	.	-3	-11	.	-5	.	.	24
CCOC(=O)N1CCN(C(=O)C2CC(=O)N(Cc3ccc(OC)cc3)C2)CC1 (stereo unspecified)	-12	9	-6	i	3	0	-6	.
Cc1nnc(SCC(=O)N2c3ccccc3C(C)(c3ccc(Cl)cc3)CC2(C)C)s1 (stereo unspecified)	-1	-21	-16	i	-39	2	16	44
COc1ccc(NC(=O)CSCc2cc(=O)n3cc(C)sc3n2)cc1	2	4	-11	i	0	8	-12	1
COc1ccc(Nc2nc(N)c([N+](=O)[O-])c(NCCO)n2)cc1	0	-4	-3	i	1	2	-10	-47
Cc1ccc(S(=O)(=O)Nc2ccccc2F)cc1C(=O)NNC(=O)c1csc(N2CCOCC2)n1	.	1	-26	i	-1	.	-3	.
Brc1ccc(/C=N/Nc2ccccc2)cc1	-10	6	.	i	2	-14	79*	-2
Cc1cc(C(=O)NC(=S)Nc2cccc(C(=O)O)c2C)ccc1[N+](=O)[O-]	2	0	.	i	0	4	-2	10
CC1CCN(c2nc3c(c(=O)n(C)c(=O)n3C)n2CCSc2nc3ccccc3s2)CC1	2	-13	-16	i	-2	-14	-13	-10
CCOC(=O)C(O)(CC(=O)c1ccc(Cl)cc1)C(=O)OCC	-18	-1	.	i	0	13	-15	4
Cc1ccc(NC(=O)CN2C(=O)N/C(=C/c3ccco3)C2=O)cc1	90*	7	25	i	2	59*	-12	.
Cc1cc(C)c(NC(=O)CO/N=C2\CCCc3nonc32)c(C)c1	0	-1	-28	i	-3	?	8	31
O=C(/C=C/c1ccc(Br)cc1)Nc1ccc(S(=O)(=O)Nc2ncccn2)cc1	8	0	.	i	6	-7	-17	5
COc1ccc(N2CCN(C(=O)c3sc4nc(-c5ccc(F)cc5)cn4c3C)CC2)cc1	0	-1	-23	i	-4	8	8	-15
CC1CCc2c(sc(N)c2C(=O)OC(C)C)C1 (stereo unspecified)	-8	-3	.	i	-1	-2	-9	.
O=C(Nc1ccc(Br)cn1)c1ccc(COc2c(F)c(F)cc(F)c2F)o1	.	4	5	.	-1	.	.	2
COc1ccccc1C(=O)Nc1ccc(C(=O)Nc2ccccc2C(=O)O)cc1	0	5	-8	i	3	32	-4	-15
CCc1ccc(Nc2ncc3c(n2)CC(c2ccco2)CC3=O)cc1 (stereo unspecified)	-4	-4	-9	i	-4	6	3	-30
O=[N+]([O-])c1ccc(C(O)C(CO)NC(=S)Nc2ccccc2)cc1 (stereo unspecified)	5	-7	.	i	3	-9	-8	16
CCC(=O)Nc1cccc(-c2ccc(N3CCN(C)CC3)nn2)c1	8	0	-21	i	-2	8	21	.
COc1ccccc1OCC(=O)NCCS(=O)(=O)N1CCN(c2ccc(F)cc2)CC1	5	0	15	i	2	-6	-1	4
Cc1ccc(-c2cc(C(=O)N3CCc4ccccc4C3)[nH]n2)cc1C	-8	5	-8	i	1	13	-17	-13
COc1cc(C(=O)NNC(=O)NC2CCCCC2)cc(OC)c1OC	-4	-5	5	i	-7	-10	-6	.
CN(Cc1ccccc1)C(=O)CCC1CCN(S(C)(=O)=O)CC1	1	1	8	i	1	8	-1	-10
Cc1sc2nc(CN3CCCCC3)nc(Cl)c2c1C	-8	3	.	i	7	13	-8	-7
COc1ccc2c(c1OC)C(CC(C)=O)N1CCc3cc4c(cc3C1C2=O)OCO4 (stereo unspecified)	.	-4	-12	.	-29	.	.	11
O=C(NCc1ccco1)c1ccc2nccnc2c1	15	3	-15	i	0	12	-6	-14
Cc1cc(C(=O)Nc2ccc3ccccc3c2)oc1C	-9	10	-32	i	6	-5	13	-133
Cn1c(/C(C#N)=C/C2CC=CCC2)nc2ccccc21 (stereo unspecified)	-2	1	-31	i	-13	-4	4	-69
COc1ccccc1C(=O)NC(CCSC)C(=O)N1CCN(C/C=C/c2ccccc2)CC1 (stereo unspecified)	.	-2	2	i	6	.	6	75*
CCCCCCCCCCCCCCCC[n+]1ccccc1	.	-33&-33&-34	-70&-59&-65	.	-7&-11&-9	.	.	-14&50&17
Cn1cnnc1Sc1ccc(S(C)(=O)=O)cc1[N+](=O)[O-]	-2	0	.	i	5	-1	-8	5
Cc1ccc(CCNC(=O)CCn2ccc3cc(S(=O)(=O)N4CCCC4)ccc32)cc1	-2	0	23	i	0	6	-14	6

Next entries follow.
Structure	eIF4H FP inh	MT1-MMP act inh RFP	Yeast UUG start	Rce1 inhib	MT1-MMP act inh	PABP FP inh	CSC inhib	Env fusion inh
Cc1cccc(C(=O)OCC(=O)N2CC(C)OC(C)C2)c1C (stereo unspecified)	5	5	-14	i	0	15	4	19
CC(=O)NC(CC(=O)O)c1ccc(F)cc1 (stereo unspecified)	-14	3	.	i	2	3	9	-5
O=C(Nc1nc2ccsc2c(=O)s1)c1ccc(F)cc1	0	-2	-23	i	-2	-15	1	-46
CCOP(=O)(OCC)c1ccccc1OCP(C)(=O)COc1ccccc1P(=O)(OCC)OCC	-3	-3	-20	i	-3	2	-24	9
CCOC(=O)c1ccc(NC(=O)c2cc3c(C)nn(-c4ccccc4Cl)c3s2)s1	-10	-12	.	i	3	13	-2	.
Cc1ccc(Nc2cc(-c3ccccc3)nc3ncnn23)cc1	-3	-4	.	i	-2	2	-4	-2
CC(C)c1nc(SCC(=O)NCc2ccccc2)n[nH]1	-3	-2	-1	i	-3	7	3	.
CCOC(=O)N1CCC(n2c(SCC(=O)N3CCCC3)nc3ccccc3c2=O)CC1	-8	-1	-3	i	1	-7	-4	1
Cc1cc(OCCN2CCCCC2)nc2ccccc12	6	.	.	i	.	15	-10	.
c1csc(-c2noc(CN3CCc4sccc4C3)n2)c1	1	4	.	i	0	-8	0	-6
COc1ccc(C(=O)OCC(=O)Nc2nnc(-c3ccccc3)o2)cc1	-2	1	-33	i	1	8	25	-32
COc1ccc(/C=N/NC(=O)c2cccc(Br)c2)cc1CSc1ccccn1	0	-1	.	i	4	-7	47	.

Whole records from above:
Profile of Cc1cc(OCCN2CCCCC2)nc2ccccc12 : eIF4H FP inh = 6; MT1-MMP act inh RFP = .; Yeast UUG start = .; Rce1 inhib = i; MT1-MMP act inh = .; PABP FP inh = 15; CSC inhib = -10; Env fusion inh = .
Profile of COc1ccc(C(=O)OCC(=O)Nc2nnc(-c3ccccc3)o2)cc1 : eIF4H FP inh = -2; MT1-MMP act inh RFP = 1; Yeast UUG start = -33; Rce1 inhib = i; MT1-MMP act inh = 1; PABP FP inh = 8; CSC inhib = 25; Env fusion inh = -32
